SENP7 inh: SENP7 protease inhibitors, primary screen, biochemical, luminescence, uHTS | recombinant SENP7, Z-RLRGG-aminoluciferin luminescence, 40 min | inhibition, % at 5 µM | 330,000 compounds, 1.5% hits;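 active = inhibition above about 50% at the single test dose, limit read from the data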;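 also: plate controls were DMSO with enzyme for no effect and no enzyme buffer wells for full effect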
SENP8 block-1: human SENP8 protease inhibitors, primary screen, biochemical, fluorescence, Nedd8 protein substrate, uHTS; 360,000 compounds, 0.64% hits; inhibition, % at 20 µM; AID 602440, 2012; recombinant SENP8; in the data active = inhibition mostly above about 40%, no sharp cut-off; inactive = mostly below about 27%
Target sequence (Q96LD8 whole entry, looked up): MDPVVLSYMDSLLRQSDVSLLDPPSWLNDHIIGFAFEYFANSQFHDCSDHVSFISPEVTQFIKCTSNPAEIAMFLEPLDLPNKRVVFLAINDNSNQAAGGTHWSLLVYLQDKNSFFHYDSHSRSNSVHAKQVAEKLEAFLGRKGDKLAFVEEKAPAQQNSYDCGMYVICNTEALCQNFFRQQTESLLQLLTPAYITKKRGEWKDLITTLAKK
SENP6 block: SENP6 protease inhibitors, primary screen, biochemical, luminescence, uHTS. Recombinant SENP6 catalytic domain, aminoluciferin luminescence. inhibition, % at 10 µM. 330,000 compounds, 1.8% hits. AID 2599, 2010;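 active = inhibition above about 50% at the single tested dose, limit read from the data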;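 also: plate controls were DMSO wells with enzyme for no effect and DMSO wells lacking enzyme for full effect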
SENP8 block-2: SENP8 protease inhibitors, primary screen, biochemical, luminescence | Sentrin-specific protease 8 (Homo sapiens), Q96LD8 | purified SENP8, Z-RLRGG-aminoluciferin cleavage | inhibition, % at 10 µM | 330,000 compounds, 1.2% hits | AID 2540, 2010; in the data active = inhibition above about 50%
PfGluPho inh: PfG6PD enzyme inhibitors, primary screen, biochemical, fluorescence intensity, uHTS; inhibition, % at 20 µM; AID 504690, 2011; PfGluPho enzyme, NADPH resazurin-diaphorase fluorescence; 350,000 compounds, 0.78% hits;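 active = inhibition reaching at least a set limit at 20 µM in the primary screen, cut at about 59% in these data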;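 also: 0% = DMSO wells with substrate and 100% = DMSO wells lacking glucose-6-phosphate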
HKDC1 inhibitor: HKDC1 hexokinase inhibitors, primary screen, biochemical, fluorescence, uHTS | Q2TB90 | recombinant HKDC1, G6PDH/diaphorase resazurin coupled fluorescence | inhibition, % at 20 µM | 340,000 compounds, 0.16% hits;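 active = inhibition above about 35% when tested at 20 µM, limit read from the data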;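 also: plate controls were DMSO wells with enzyme for no effect and DMSO wells lacking enzyme for full effect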
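Test system: HK5 enzyme. Quantity: 5 µg/mL HK5 final. Reagent: glucose and ATP substrates. Schedule: 90 min reaction incubation at room temperature, dark. Technique: resazurin-to-resorufin fluorescence via G6PDH and diaphorase coupling, 525/613 nm. Control set: DMSO wells with and without enzyme mix.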
SENP1 FRET inh: human SENP1 catalytic domain inhibitors, primary screen, biochemical, FRET, uHTS | inhibition, % at 10 µM | Sentrin-specific protease 1 (Homo sapiens), Q9P0U3 | AID 624204, 2012 | 360,000 compounds, 0.21% hits | recombinant SENP1 catalytic domain, CyPet-SUMO1-YPet FRET cleavage;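 active = inhibition at least 30% at 10 µM, raw YFP signal under a set limit, fluorescence ratio 0.5 to 1.5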;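 also: 0% = enzyme with DMSO and 100% = no enzyme wells; some results filed as inactive read as strong as hits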
Target sequence (Q9P0U3 419-644 limits assumed): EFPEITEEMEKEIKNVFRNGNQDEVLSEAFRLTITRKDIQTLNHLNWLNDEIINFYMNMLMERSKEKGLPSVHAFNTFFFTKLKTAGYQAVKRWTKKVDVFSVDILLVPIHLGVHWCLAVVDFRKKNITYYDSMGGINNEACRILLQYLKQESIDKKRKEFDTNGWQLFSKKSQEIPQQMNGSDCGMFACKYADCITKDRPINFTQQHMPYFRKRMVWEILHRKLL
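Test system: human SENP1 catalytic domain; medium: Tris pH 8 buffer plus EDTA, NaCl, BME, BSA, NP40, catalase; incubation: 50 min reaction at room temperature; technique: FRET, CFP and YFP emission; controls: no-enzyme low control and enzyme-plus-DMSO high control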
* = called active by the depositor; / = not tested or not shown. Not all compounds are listed; count on the stated rates, not on these rows.

SMILES	SENP7 inh	SENP8 block-1	SENP6 block	SENP8 block-2	PfGluPho inh	HKDC1 inhibitor	SENP1 FRET inh
CCOC(=O)c1cc2c(=O)n3ccccc3nc2n(CCCOC)c1=NC(C)=O	-6.2	-340.3	0.0	-5.4	-6.9	0.4	-25.0
CCc1nnc(NC(=O)CCC(=O)N2CCN(CCOc3ccc(C)cc3)CC2)s1	-2.4	25.5	-14.5	-7.6	-3.7	-2.3	-1.2
N#Cc1cc2c(nc1SCC(=O)Nc1nccs1)CCCCC2	2.5	-138.5	-0.3	1.6	-7.7	-5.9	-94.1
COC(=O)c1c(=O)n(O)c2ccc(OC)cc2[n+]1[O-]	3.4	-8.5	-21.0	7.1	-2.8	1.5	16.9
CC(=C1C2C=CC1C1C(=O)NC(=O)C21)c1ccccc1 (centres undefined)	-12.5	7.2	-1.6	-8.5	-9.5	-8.8	2.1
COC(=O)C1=CN(CC2CCCO2)C=C(C(=O)OC)C1c1cc(OC)c(OC)c(OC)c1 (centres undefined)	2.0	-302.3	3.1	-10.2	-9.9	-1.2	-165.0
Cc1cccn2c(=O)c3cc(C(=O)NCc4ccco4)c(=N)n(C(C)C)c3nc12	7.9	-19.5	-2.9	0.6	-6.0	-3.8	-1.0
COCCn1c(-c2ccco2)nc2nc3ccccc3nc21	-2.6	-464.7	4.9	0.7	7.2	-4.9	-24.4
Nc1ccc2c(c1)-c1ccccc1S(=O)(=O)N2	7.9	-76.4	17.9	13.7	-3.5	11.2	-20.2
Cc1cc2n(c1)CCn1c(C)ccc1-2	9.1	/	-8.9	-5.5	/	/	/
C=CCNc1oc(-c2cccc3ccccc23)nc1C#N	1.0	-269.6	-14.5	-6.9	15.1	17.5	-16.6
Cc1c(Cc2ccccc2)c(=O)oc2c(CN(C)C)c(O)c(Cl)cc12	-6.7	-309.3	-6.6	-9.0	8.1	1.9	-22.9
CCc1cc(=O)oc2c(C)c(O)c(CN(C)C)cc12	5.8	-326.4	1.9	1.1	-8.4	-1.9	-17.7
Cc1ccc2nc(N3CCN(Cc4nnnn4Cc4ccccc4)CC3)c(C#N)cc2c1	9.0	-326.5	-5.8	0.4	4.9	0.8	-131.6
CN(C)c1ccc(C2C=C(c3ccc(Cl)cc3OC(F)F)Nc3ncnn32)cc1 (centres undefined)	1.8	-450.9	8.9	5.7	9.9	2.9	-23.8
COc1ccc(S(=O)(=O)N2CCN(C(=O)c3cccs3)CC2)cc1OC	1.3	13.2	8.4	5.5	-1.9	-9.7	0.1
COC(=O)c1ccc(C2C(C#N)=C(C)NC3=C2C(=O)CC(C)(C)C3)cc1 (centres undefined)	2.3	-267.5	5.9	6.9	-4.6	1.5	-35.2
COc1ccccc1C1C=C(c2ccc(Cl)cc2)Nc2nc(NS(C)(=O)=O)nn21 (centres undefined)	4.0	/	3.3	3.0	/	/	/
N=c1c(C(=O)NCc2ccc3c(c2)OCO3)cc2c(=O)n3ccccc3nc2n1Cc1cccnc1	2.7	-310.1	-5.4	4.6	0.7	-0.4	-30.7
Cc1cc(NCc2ccco2)nc2cc(O)ccc12	-19.4	-382.1	-4.7	-6.7	-6.0	3.8	-130.0
Cc1ccc(S(=O)(=O)N2CCOCC2)cc1C(=O)N1C(=O)c2cccc(N)c2C1=O	-5.6	-284.1	4.1	-3.9	6.3	9.4	-24.2
N#CC1=C(N)C(C#N)(C#N)[C@H](c2ccsc2)[C@H]2COCC=C12	-0.7	-57.9	-0.5	-3.5	0.4	-5.9	-22.9
COc1ccc(CCCc2nnc(SCC(=O)Nc3ncc(C)s3)o2)cc1	6.3	6.2	-6.9	-3.7	9.0	-4.9	1.7
COc1cc(NS(C)(=O)=O)ccc1Nc1c2ccccc2nc2ccccc12	-7.3	-260.6	1.6	-7.4	-7.9	13.9	-97.9
Cc1cccn2c(=O)c3cc(C(=O)NCc4cccnc4)c(=N)n(C(C)C)c3nc12	0.1	-238.2	2.0	-4.0	8.0	-1.5	-23.6
CCC1CCCCN1C(=O)CSc1nc(N)c(NC(=O)c2ccc(OC)c(OC)c2)c(=O)[nH]1 (centres undefined)	13.9	13.4	-18.6	-8.1	-7.6	-5.0	1.7
COc1ccc(-c2noc(CSc3nc4ccccc4c(=O)n3-c3ccccc3)n2)cc1OC	-7.7	17.9	-14.3	-7.1	13.0	-7.7	1.5

3 entries out of the list above, ordered by the value under SENP1 FRET inh, ascending.
| structure | SENP1 FRET inh |
| --- | --- |
| N=c1c(C(=O)NCc2ccc3c(c2)OCO3)cc2c(=O)n3ccccc3nc2n1Cc1cccnc1 | -30.7 |
| Cc1c(Cc2ccccc2)c(=O)oc2c(CN(C)C)c(O)c(Cl)cc12 | -22.9 |
| CC(=C1C2C=CC1C1C(=O)NC(=O)C21)c1ccccc1 (centres undefined) | 2.1 |

Profiles from above. Order of values: SENP7 inh	SENP8 block-1	SENP6 block	SENP8 block-2	PfGluPho inh	HKDC1 inhibitor	SENP1 FRET inh
Nc1ccc2c(c1)-c1ccccc1S(=O)(=O)N2 as listed: 7.9	-76.4	17.9	13.7	-3.5	11.2	-20.2
COc1ccccc1C1C=C(c2ccc(Cl)cc2)Nc2nc(NS(C)(=O)=O)nn21 (centres undefined) as listed: 4.0	/	3.3	3.0	/	/	/
C=CCNc1oc(-c2cccc3ccccc23)nc1C#N as listed: 1.0	-269.6	-14.5	-6.9	15.1	17.5	-16.6
COc1ccc(CCCc2nnc(SCC(=O)Nc3ncc(C)s3)o2)cc1 as listed: 6.3	6.2	-6.9	-3.7	9.0	-4.9	1.7

A few values from the list.
In SENP8 block-2, Cc1cccn2c(=O)c3cc(C(=O)NCc4cccnc4)c(=N)n(C(C)C)c3nc12 is listed with -4.0
In HKDC1 inhibitor, CCOC(=O)c1cc2c(=O)n3ccccc3nc2n(CCCOC)c1=NC(C)=O is listed with 0.4
